Mtb growth: Confirmatory growth inhibition assay against Mycobacterium tuberculosis H37Rv, potency (AID 1949); most inactive calls were filed without a number and no value below 0 was filed; one-dose inhibition, % at 10 µg/mL; IC50 in µg/mL for titrated hits; 1.6% of 100,000 active;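 active means confirmed in a dose series; inconclusive means about 50% or more but not retested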;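 further: bacteria grown 7 days with compound before Alamar blue readout; 0% = untreated bacteria and 100% = reference antibiotic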
Numbers without * were called inactive; i = inactive; ? = inconclusive. A portion of the library (hit frequency here may not be typical).

SMILES	Mtb growth
COc1ccc(Br)cc1C(=O)Nc1ccc(N2CCN(C(=O)C(C)C)CC2)c(Cl)c1	5.1µg/mL*
CC(=O)Nc1ccc(OCC(=O)Nc2ccccc2)cc1	5%
Cc1ccc(C(=O)Nc2cccc(NC(=O)c3ccc(C)o3)c2)o1	i
O=C1C(c2ccc(F)cc2)CSc2nc3ccccc3n21 (stereo not drawn)	i
O=[N+]([O-])c1cc(C(F)(F)F)ccc1NCCCO	i
Cc1nnc(SCc2ccc(C(C)(C)C)cc2)[nH]c1=O	i
COC(=O)c1c(NC(=O)c2ccc(OC)c(OC)c2)sc2c1CCCCCC2	i
Cc1cc(=O)[nH]c(SCCc2ccccc2)n1	i
COc1ccc(OCC(O)CNC(C)C)cc1 (stereo not drawn)	i
COCCNC(=S)N1CCN(Cc2ccc(Cl)c(Cl)c2)CC1	i
COc1ccc(NC(=O)CC2C(=O)N(C)C(=S)N2Cc2ccco2)cc1 (stereo not drawn)	3%
CS(=O)(=O)N(CC(=O)NCc1ccncc1)c1cccc([N+](=O)[O-])c1	i
CCC(Sc1ncc(-c2ccccc2)nn1)C(=O)NC(C)c1ccccc1 (stereo not drawn)	i
C=C(C)C1CCC(C)=C1COC(=O)CC (stereo not drawn)	3%
Cc1sc(NC(=O)C2C3C=CC(O3)C2C(=O)O)nc1-c1ccccc1 (stereo not drawn)	i
O=C(NC(NC(=O)C(c1ccccc1)c1ccccc1)c1ccc(F)cc1)C(c1ccccc1)c1ccccc1	7%
COc1ccc(OC)c(S(=O)(=O)NCCC2=CCCCC2)c1	i
O=C(NCCc1ccc(Cl)cc1)c1ccc2c(c1)OCCO2	i
Cc1cccc(/C(N)=N/OC(=O)c2ccccc2Cl)c1	10%
COc1cccc(OC)c1OCCCOc1ccccc1Br	7%
O=C(Nc1nc(-c2ccc(Cl)cc2)cs1)C1CC1c1ccccc1 (stereo not drawn)	i
CC1CN(C(N)=S)N(c2ccccc2)C1 (stereo not drawn)	i
COC(=O)c1c(NC(=O)CCCC(=O)O)sc(C)c1-c1ccc(C)c(C)c1	i
COC(=O)Nc1nnc(SCc2ccc(C)cc2)s1	2%
Cc1ccc(OCC(=O)N2CCCC2)c(Br)c1	1%
CCOC(=O)c1cc2n(n1)C(C(F)(F)F)CC(c1ccccc1)N2 (stereo not drawn)	47%
COc1ccccc1N(CC(=O)N1CCN(c2ccccc2)CC1)S(=O)(=O)c1ccccc1	i
O=C(NCC1(c2ccccc2)CCOCC1)c1cccs1	i
COc1ccc(CNC(=O)CSCc2cccc(Cl)c2)cc1	i
O=C(Nc1ccc(Br)cn1)c1cc2n(n1)C(C(F)(F)F)CC(c1cccs1)N2 (stereo not drawn)	i
COc1ccc(OC)c(C(=O)c2coc3c2cc(O)c2ccccc23)c1	0%
CCOC(=O)Nc1ccc(S(=O)(=O)N2CCC(C)CC2)cc1	i
O=C(CCCOc1ccc(Cl)cc1Cl)N1CCN(c2ccccc2)CC1	13%
CC(=O)c1c(C)nn2c3ccccc3n(CCN3CCOCC3)c12	i
Cc1cccc(-n2ncc3c(NC4CCCCC4)ncnc32)c1	14%
COc1cc(C2C(C(=O)N3CCCCC3)=C(C)NC3=C2C(=O)CCC3)cc(Cl)c1O (stereo not drawn)	i
Cc1ccc(NS(=O)(=O)c2cccc(C(=O)Nc3ccccc3C(=O)O)c2)cc1C	i
CCS(=O)(=O)NCCc1ccccc1	i
CCCOc1ccc(C(=O)N2CCN(c3ccc(NC(=O)CCC)cc3Cl)CC2)cc1	i
C=CCn1c(SCC(=O)OCc2ccccc2)nc2c1c(=O)[nH]c(=O)n2C	i
CCCCNCCOCCOc1c(C)cccc1C(C)(C)C	2%
Cc1cc(C)c(S(=O)(=O)N(C)CC(=O)Nc2ccc3c(c2)OCCO3)c(C)c1	i
CCNS(=O)(=O)c1ccc(NC(=O)Nc2cccc(Cl)c2Cl)cc1	i
O=C(Oc1ccc(C(=S)N2CCC(O)CC2)cc1)c1cccc([N+](=O)[O-])c1	i
Oc1ccc(Cn2ccnc2)c2cccnc12	i
COc1ccc(-c2nnnn2C)cc1S(=O)(=O)Nc1ccc(C)cc1C	i
Cc1ccc(NC(=O)Cn2cnc3sc(C(=O)Nc4ccccc4)c(C)c3c2=O)cc1	i
CCc1c(O)nc(SCC(=O)N(c2ccccc2)c2ccccc2)[nH]c1=O	i
Cc1ccc(OC(C)C(=O)Nc2c(C)n(C)n(-c3ccccc3)c2=O)cc1C (stereo not drawn)	i
CCCOc1ccc(C(=O)Nc2ccc3c(c2)OCO3)cc1	i
c1ccc(-c2csc3ncnc(-n4cnc5ccccc54)c23)cc1	i
Cc1ccc(-c2nc3ccc(NC(=O)c4cccs4)cc3[nH]2)o1	i
COCCNS(=O)(=O)c1ccc2c(c1)Cc1cc(S(=O)(=O)NCCOC)ccc1-2	5%
COc1ccc(C(NC(=O)c2ccccc2)c2ccc3cccnc3c2O)c(OC)c1 (stereo not drawn)	i
COc1ccc(NC(=O)C2CCC(=O)N2)cc1 (stereo not drawn)	i
O=C(COc1ccccc1Cl)Nc1ccc(S(=O)(=O)N2CCOCC2)cc1	2%
Cc1ccc(N(CC(=O)Nc2ccccc2F)S(=O)(=O)c2ccc(F)cc2)cc1	0%
O=[N+]([O-])c1ccccc1S(=O)(=O)N1CCN(C(c2ccccc2)c2ccccc2)CC1	3%
O=C(Nc1ccc(C(F)(F)F)c(OCC(F)(F)C(F)F)c1)c1ccc(F)cc1	39%
O=C(CSc1nc2ccccc2s1)Nc1cccc(NC(=O)C23CC4CC(CC(C4)C2)C3)c1	i

(cont.)
SMILES	Mtb growth
CCc1ccc(S(=O)(=O)Nc2cccc(F)c2)cc1	i
COc1ccccc1C(=O)Nc1cnn(Cc2ccccc2C)c1	0%
COc1ccccc1NC(=O)C1CC(=O)NC(=Nc2ccc(C)cc2)S1 (stereo not drawn)	i
Cc1ccc(C)c(C(C)NC(=O)Cc2ccc(Br)cc2)c1 (stereo not drawn)	i
COc1ccc(CCNC(=O)c2ccc(NC(=O)C3COc4ccccc4O3)cc2)cc1OC (stereo not drawn)	i
CCOc1ccc(N2CC(C(=O)Nc3ccc4c(c3)OCO4)CC2=O)cc1 (stereo not drawn)	i
CCOc1ccc(C2CC(=O)NC(SCC(=O)Nc3ccc(C)cc3)=C2C#N)cc1 (stereo not drawn)	i
CCC1CCCCN1C(=O)c1ccc(C)o1 (stereo not drawn)	2%
COC(=O)c1c(NC(=O)c2c(Cl)cccc2Cl)sc2c1CCC2	i
CNC(=O)C1CC(=O)N(c2ccc(O)cc2)C1 (stereo not drawn)	i
COc1cc(OC)c(NC(=O)CCC2CCCCC2)cc1Cl	i
Cc1c(NC(=O)C(C)(C)C)cccc1C(=O)NN1C(=O)c2ccccc2C1=O	i
CCOc1ccc(N(CC(=O)Nc2ccc(NC(C)=O)cc2)S(C)(=O)=O)cc1	5%
CN(C)CC(=O)Nc1ccc(Cl)cc1	i
CNCC(=O)N1c2ccccc2Sc2ccc(C(F)(F)F)cc21	3%
CCOc1cc(C2C3=C(CC(C)(C)CC3=O)Nc3ncnn32)ccc1O (stereo not drawn)	i
CCOC(=O)c1ccccc1NC(=O)COc1ccc(C)cc1C(C)(C)C	2%
C=CCOc1ccc(C(=O)Nc2cc(OC)ccc2OC)cc1	2%
COC(=O)c1cccc(NC(=S)NC(=O)c2ccccc2F)c1	i
COCCNC(=S)NC(C)c1ccc(C)c(C)c1 (stereo not drawn)	i
O=C(CSc1nc2ccccc2c(=O)n1CCc1ccccc1)NC1CC1	5%
COc1ccc(C2CC(c3ccc(Cl)cc3)=NN2c2cccc(Cl)c2)cc1 (stereo not drawn)	16%
CCOc1ccccc1NC(=O)COc1cc(C)c(Br)c(C)c1	i
C=CCOc1ccc(C(=O)NCc2ccccc2OC)cc1	4%
NS(=O)(=O)c1ccc(NC(=S)Nc2ccc3c(c2)CCC3)cc1	i
COc1cccc(OC)c1C(=O)Nc1ccc(-c2nc3ccccc3[nH]2)cc1	0%
O=C(Cc1cccs1)NCc1cccc(Cl)c1	7%
CNC(=S)N1CCCC1C(=O)Nc1ccc(Cl)cc1 (stereo not drawn)	i
CC(C)(C)CC(=O)NC(=S)Nc1ccccc1	i
CCN(CC)CCC(=O)c1ccc(OC)c(OC)c1	i
Cc1cc(C)c(C)c(S(=O)(=O)Nc2ccc(C(=O)NCc3ccccn3)cc2)c1C	0%
CC1=C(C(=O)Nc2cc(C)cc(C)c2)C(c2ccccc2Br)NC(=S)N1 (stereo not drawn)	i
COC(=O)c1c(NC(=O)CCN2C(=O)c3ccccc3C2=O)sc2c1CCC2	i
Cc1cccc(OCC(=O)Nc2ccccc2N2CCN(C(=O)c3ccc(Cl)cc3)CC2)c1C	23%
CCC(=O)Nc1ccc(Br)cc1-c1nnc(SC)[nH]c1=O	i
O=C(Nc1ccc(Cl)cc1)N1CCOCC1	i
COc1ccc(CCNC(=O)c2ccsc2NC(=O)c2ccco2)cc1OC	i
CN(C)CCNC(=S)Nc1cccc2ccccc12	i
CN(CC(=O)N1CCN(c2ccccc2)CC1)S(=O)(=O)c1ccc2ccccc2c1	0%
CCCc1ccc(OCc2ccc(C(=O)Nc3nccs3)cc2)cc1	i
COc1ccc(C2=NN(S(C)(=O)=O)C(c3ccccc3C)C2)cc1OC (stereo not drawn)	i
O=C(CCN1C(=O)c2ccc([N+](=O)[O-])cc2C1=O)Nc1ccccc1I	i
Cn1c(SC/C=C/c2ccccc2)nnc1-c1ccco1	i
Cc1cc(-c2nc(-c3ccccc3)no2)ccc1[N+](=O)[O-]	i
CN1CCN(C(=O)COc2ccccc2F)CC1	i
O=C(NCc1ccc(Cl)c(Cl)c1)c1cccs1	7%
Nc1ccc(C(=O)NNC(=O)c2ccc(Cl)cc2)cc1	i
CS(=O)(=O)N(CC(=O)Nc1ccc2c(c1)OCCO2)c1ccc(Oc2ccccc2)cc1	1%
Cn1c(SCC(=O)Nc2nccs2)nnc1-c1ccc(Cl)cc1Cl	i
Cc1ccccc1-c1nc(C#N)c(NCCN2CCOCC2)o1	12%
OCc1ccc(OCc2cccc3ccccc23)c(Cl)c1	i
O=C(Nc1cccc(Cl)c1)c1ccc(NCC2CCCO2)c([N+](=O)[O-])c1 (stereo not drawn)	i
CCOC(=O)CCCCC(=O)c1[nH]c(=O)[nH]c1CN1CCOCC1	i
CCc1cccc(C)c1NC(=O)COc1c(C)ccc(C)c1C	3%
O=[N+]([O-])c1ccccc1-c1ccc(NC(=S)NCc2ccco2)cc1	i
CN(C)c1ccc2c(=O)[nH][nH]c(=O)c2c1	i
CCOc1ccccc1N(CC(=O)Nc1ccc(CC)cc1)S(C)(=O)=O	i
CCCC(=O)N1CCN(c2ccc(NC(=S)NC(=O)c3cccc4c(Br)cccc34)cc2)CC1	i
O=C(CN(c1ccccc1F)S(=O)(=O)c1ccccc1)Nc1ccc2c(c1)OCCO2	2%
CCc1ccccc1NC(=O)c1cc(-c2ccccc2OC(C)C)nc2ccccc12	i

No new results follow: 23 of the compounds above.
SMILES	Mtb growth
CN(C)CCNC(=S)Nc1cccc2ccccc12	i
CN(CC(=O)N1CCN(c2ccccc2)CC1)S(=O)(=O)c1ccc2ccccc2c1	0%
CCCc1ccc(OCc2ccc(C(=O)Nc3nccs3)cc2)cc1	i
COc1ccc(C2=NN(S(C)(=O)=O)C(c3ccccc3C)C2)cc1OC (stereo not drawn)	i
O=C(CCN1C(=O)c2ccc([N+](=O)[O-])cc2C1=O)Nc1ccccc1I	i
Cn1c(SC/C=C/c2ccccc2)nnc1-c1ccco1	i
Cc1cc(-c2nc(-c3ccccc3)no2)ccc1[N+](=O)[O-]	i
CN1CCN(C(=O)COc2ccccc2F)CC1	i
O=C(NCc1ccc(Cl)c(Cl)c1)c1cccs1	7%
Nc1ccc(C(=O)NNC(=O)c2ccc(Cl)cc2)cc1	i
CS(=O)(=O)N(CC(=O)Nc1ccc2c(c1)OCCO2)c1ccc(Oc2ccccc2)cc1	1%
Cn1c(SCC(=O)Nc2nccs2)nnc1-c1ccc(Cl)cc1Cl	i
Cc1ccccc1-c1nc(C#N)c(NCCN2CCOCC2)o1	12%
OCc1ccc(OCc2cccc3ccccc23)c(Cl)c1	i
O=C(Nc1cccc(Cl)c1)c1ccc(NCC2CCCO2)c([N+](=O)[O-])c1 (stereo not drawn)	i
CCOC(=O)CCCCC(=O)c1[nH]c(=O)[nH]c1CN1CCOCC1	i
CCc1cccc(C)c1NC(=O)COc1c(C)ccc(C)c1C	3%
O=[N+]([O-])c1ccccc1-c1ccc(NC(=S)NCc2ccco2)cc1	i
CN(C)c1ccc2c(=O)[nH][nH]c(=O)c2c1	i
CCOc1ccccc1N(CC(=O)Nc1ccc(CC)cc1)S(C)(=O)=O	i
CCCC(=O)N1CCN(c2ccc(NC(=S)NC(=O)c3cccc4c(Br)cccc34)cc2)CC1	i
O=C(CN(c1ccccc1F)S(=O)(=O)c1ccccc1)Nc1ccc2c(c1)OCCO2	2%
CCc1ccccc1NC(=O)c1cc(-c2ccccc2OC(C)C)nc2ccccc12	i

(further entries)
SMILES	Mtb growth
CCCS(=O)(=O)N1CCN(Cc2cc(Br)ccc2OC)CC1	i
COc1ccc(NS(=O)(=O)c2ccc(NS(=O)(=O)c3cc(Cl)ccc3Cl)cc2)cc1	0%
Cc1ccc(S(=O)(=O)NCC(=O)N2CCN(c3cccc(Cl)c3)CC2)cc1	1%
COc1ccccc1C(=O)Nc1cc(-c2nc3cc(C(C)C)ccc3o2)ccc1C	37%
O=C1CC(N2CCN(c3ccc(F)cc3)CC2)C(=O)N1Cc1cccs1 (stereo not drawn)	4%
CCc1ccc(NS(=O)(=O)c2cc(F)ccc2OC)cc1	i
COc1cc(C(=O)Nc2ccc(C(=O)N3C(C)CCCC3C)cc2)cc(OC)c1OC (stereo not drawn)	i
COC(=O)N(C)CC1Cc2ccccc2O1 (stereo not drawn)	i
Cn1c(=O)c2[nH]c(NCCN3CCOCC3)nc2n(C)c1=O	2%
COc1ccc(-n2ncc3c(NCc4ccccc4Cl)ncnc32)cc1	?
Cn1c(=O)n(C)c2cc(S(N)(=O)=O)ccc21	8%
COC(=O)c1ccc(C2c3c(oc4ccc(Cl)cc4c3=O)C(=O)N2Cc2ccccc2)cc1 (stereo not drawn)	6%
O=C(Nc1cccc(C(=O)N2CCN(c3ccc(F)cc3)CC2)c1)c1ccccc1	10%
